Assay outcomes from PubChem.
RVFV N-RNA FP = RVFV nucleocapsid-RNA interaction inhibition; P21700; RVFV N-RNA binding, fluorescence polarization; hits give low values; % bound, % (concentration not given with the values); 20,000 compounds, 0.1% hits; AID 651828;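 active = between 0 and 58% in either replicate with normal brightness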;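 note: 100 nL library stock added to about 12 µL; 100% = protein and probe without compound and 0% = probe alone; numbers are from one replicate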
Target sequence (P21700 whole entry, looked up): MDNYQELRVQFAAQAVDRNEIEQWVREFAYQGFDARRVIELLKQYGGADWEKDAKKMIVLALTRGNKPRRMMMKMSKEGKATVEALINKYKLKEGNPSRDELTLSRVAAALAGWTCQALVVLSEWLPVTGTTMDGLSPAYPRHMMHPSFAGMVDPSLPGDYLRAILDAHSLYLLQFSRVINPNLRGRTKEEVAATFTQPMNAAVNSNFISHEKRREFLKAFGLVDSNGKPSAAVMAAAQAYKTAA
* = called active by the depositor; & = joins results of further samples. Not all compounds are listed; rates above refer to the full screens.

Structure	RVFV N-RNA FP
COc1ccc(-c2csc(=Nc3ccccc3)n2N2CCOCC2)cc1	91.7
CCCCN(c1ccccc1C(=O)O)S(=O)(=O)c1ccc(OC)cc1	95.3
C#CC(C)OC(=O)Nc1cnccc1C(F)(F)F (configuration not stated)	90.5
CC(C)(C)NC(=O)CCSc1ccccc1	98.8
CCc1ccc(C(=O)NCCOC)s1	90.1
Cc1c(C(=O)NCc2ccccc2Br)oc2ccccc12	91.2
Cc1ccc2oc(C(=O)N(C)c3ccccc3)c(C)c2c1	97.6
CCOC(=O)c1c(C)oc(C)c1S(=O)(=O)Nc1ccccc1	93.9
Cc1ccc(N2C(=O)c3ccc(C(=O)O)cc3C2=O)cc1	90.6
N#CCCN(CC1CCCO1)S(=O)(=O)c1cccc2nsnc12 (configuration not stated)	91.3
Cc1cccc(OCc2ccc(C(=O)NCCCN3CCOCC3)cc2)c1	90.5
CC1(C)Cc2ccccc2-c2nc(NCCCO)n(-c3ccccc3)c(=O)c21	74.5
CC(=O)NC(=O)CSc1nnc(NC(=O)CSc2nc3ccccc3s2)s1	93.8
COc1ccc(NC(=S)Nc2ccc(N3CCOCC3)c3nonc23)cc1OC	90.0
C(=NC1=NN(c2ccccc2)CC1)c1ccccc1	92.4
Cc1ccc(COc2cccc3c2CCN(C)C3=O)cc1	97.6
COc1ccc(N2C(=O)CC(N3CCN(c4ccc(S(C)(=O)=O)cc4)CC3)C2=O)cc1 (configuration not stated)	100.2
O=C1c2ccccc2C(=O)N1/N=C/c1ccc2c(c1)OCO2	95.1
CSc1nnnn1-c1ccc(I)cc1	89.3
C[N+](C)(C)CC#CCN1CCCC1=O	94.3
C=CCn1ccn(-c2cccc(Cl)c2)c(=O)c1=O	102.9
CCN(CC)CCN(C)C1CCC(c2ccccc2)CC1 (configuration not stated)	92.2
N=C(N)SCCN	104.1
COc1cccc(N(CC(=O)Nc2ccc(C)cc2)S(C)(=O)=O)c1	91.7
COc1cc(C2C3=C(CCCC3=O)OC3=C2C(=O)CCC3)cc(Br)c1O	113.8
COn1c(=O)c(-c2cccc(C(F)(F)F)c2)[n+]([O-])c2ccccc21	92.0
O=C(CCC(=O)c1ccccc1)Nc1ccccc1F	109.1
COc1ccc(CN2CCSCC2)cc1Br	98.8
O=c1c2cccc3c2c(nn1CN1CCOCC1)-c1ccccc1-3	110.0
COc1ccc(CNC(=O)c2cnc3ccccn3c2=O)cc1	95.5
C=CCSc1n[nH]c(=O)n1C1CCCCC1	87.3
Oc1ccc(-c2cnc3ccccc3n2)cc1	99.7

Overlap with the part before: 2 compounds, followed by the next part.
Structure	RVFV N-RNA FP
C=CCSc1n[nH]c(=O)n1C1CCCCC1	87.3
Oc1ccc(-c2cnc3ccccc3n2)cc1	99.7
CC(=O)O/N=C(\N)c1ccc(N2CCN(c3ncccc3C(F)(F)F)CC2)nc1	97.2
COc1ccc(OCc2nc3ccccc3n2C)cc1	99.0
CC(=O)N1CCN(C2CCSC2)CC1 (configuration not stated)	94.5
CNS(=O)(=O)c1ccc(NC(=O)c2ccc(C)o2)cc1	96.9
Clc1ccc2c(c1)NNc1nncn1-2	93.1
COc1cccc(C(=O)NCCSc2ccc(C)cc2)c1	94.4
O=C(NCCc1ccccc1)Nc1ccccc1	108.1
CCCc1cc(=O)oc2cc(C)cc(OCC(=O)OCC)c12	87.3
CC1(C)CC(=O)C2=C(C1)NC(Nc1nc3ccccc3s1)=NC2c1cccnc1 (configuration not stated)	92.7
COc1ccccc1C(=O)Nc1ccc2c(c1)COC2=O	99.8
CCC(CC)NC(=O)Cc1ccc(F)cc1	97.7
CO/N=C1\CC(C)(C)Cc2c(-c3ccn(C(=O)c4cccs4)n3)sc(SC)c21	86.3
CCCNS(=O)(=O)c1ccc(SC)cc1	112.2
CN1C[C@@H](NS(=O)(=O)N(C)C)C[C@@H]2c3cccc4c3c(cn4C)C[C@H]21	93.0
Cc1ccc(C=Nc2cccc(C#N)c2)s1	96.8
CCN1C(=O)NC(c2cccnc2)C(C(=O)OC)=C1C (configuration not stated)	95.9
O=C(O)C1C2C=CC(C3CC23)C1C(=O)N1CCc2ccccc21 (configuration not stated)	95.1
CC1=C(CCN2CCN(c3ccccc3)CC2)C(C)(C)CCC1	88.7
CC1CCN(Cn2cnn(CN3CCC(C)CC3)c2=S)CC1	88.5
O=C(O)c1ccc(C=Nc2ccc(C(=O)O)cc2)cc1	91.0
O=C1CCc2cc(S(=O)(=O)N3CCc4ccccc43)cc3c2N1CC3	93.3
COCCn1c(C)cc(/C=C(\C#N)c2ccc(C)cc2)c1C	98.2
CN(C)c1ccc(/C=N/N=C2/C(=N/O)CCc3nonc32)cc1	100.6
CC1CN(S(=O)(=O)c2cccc(C(=O)Nc3ccccc3)c2)CC(C)O1 (configuration not stated)	94.0

An excerpt from above in order of molar mass, lowest first.
Structure	RVFV N-RNA FP
COCCn1c(C)cc(/C=C(\C#N)c2ccc(C)cc2)c1C	98.2
CN(C)c1ccc(/C=N/N=C2/C(=N/O)CCc3nonc32)cc1	100.6
CC1CN(S(=O)(=O)c2cccc(C(=O)Nc3ccccc3)c2)CC(C)O1 (configuration not stated)	94.0

(cont.)
Structure	RVFV N-RNA FP
O=c1cc(-c2ccccc2F)[nH]c2cc3c(cc12)OCO3	97.2
Cn1c(NC(=O)Cc2ccccc2)cc(=O)n(C)c1=O	95.3
CN1CCC(=C2c3ccccc3CCc3cccnc32)CC1	101.3
CCC(Sc1ccc(C(=O)O)cc1)C(=O)O (configuration not stated)	90.0
S=C(NCCc1ccccc1)N1CCN(c2ncccn2)CC1	84.5
C=CCN1C(=O)NC(=O)/C(=C\c2ccccc2)C1=O	95.1
Cc1cn2c(=O)c(C(=O)N3CCN(C(c4ccccc4)c4ccccc4)CC3)cnc2s1	86.4
CCN(CC)Cc1nc2ccccc2n1C	94.9
Cc1cccc(-c2nc(-c3ccc(N4CCN(c5ccc(C(F)(F)F)cn5)CC4)nc3)no2)c1	95.0
COC(=O)c1ccc(NC(=O)Nc2ccc(C)cc2)cc1	92.8
Cc1c(NC(=O)CC(O)(C(F)(F)F)C(F)(F)F)c(=O)n(-c2ccccc2)n1C	95.5
c1ccc(CCCN2CCN(CCOC(c3ccccc3)c3ccccc3)CC2)cc1	102.2
O=C(Nc1ccccc1)N1CCN(S(=O)(=O)c2ccccc2)CC1	100.4
CSc1ccccc1NS(=O)(=O)c1cccs1	105.0
Brc1ccc2c(c1)c1ccccc1n2CN1CCCCC1	92.0
O=C(O)c1cncc(Cl)c1	98.1
CCOc1ccc(N=Cc2ccc(N(C)CCC#N)cc2)cc1	97.2
O=C(Cc1ccccc1)NNC(=S)Nc1ccccc1	91.0
CCOc1cccc(OCCOc2ccc(F)cc2)c1	108.1
Cc1ccc(/C(N)=N/OC(=O)Oc2ccccc2)cc1	102.0
CC1(C)C2CCC13CS(=O)(=O)N1OC13C2 (configuration not stated)	98.1
COc1ccc(CCC(=O)NCC#N)cc1	86.2
C[C@H](Cn1cnc2c(N)ncnc21)OCP(=O)(O)O	99.9
C=CCNS(=O)(=O)c1ccc(SC)cc1	99.7
Cc1cc(N2CCOCC2)nc(SCc2cc3c(cc2Cl)OCO3)n1	97.7
NS(=O)(=O)c1ccc(NC(=O)CN2CC(=O)NC(=O)C2)cc1	92.9
CC(C)Oc1ccc(C2CC(=O)Nc3sc(C(=O)c4ccco4)c(N)c32)cc1 (configuration not stated)	96.7
Cn1cnnc1SC1c2cccc3cccc(c23)C1NS(=O)(=O)c1ccccc1 (configuration not stated)	87.6
CCNC(=O)c1ccc(C23CC4CC(CC(C4)C2)C3)o1	94.2
Cc1cc(OC(C)C(=O)Nn2cnnc2)ccc1Cl (configuration not stated)	104.2
Cn1c(=O)c2c(ncn2CC(=O)NN)n(C)c1=O	84.2
CC(Oc1ccc(-c2ccccc2)cc1)C(=O)N1CCN(S(C)(=O)=O)CC1 (configuration not stated)	91.6
CC1=C(CCN2CCN(C)CC2)C(C)(C)CCC1	103.1
CC(=O)NC(=O)/C(C#N)=C/Nc1ccc(F)c(Cl)c1	86.9
O=C1CCC2(CC1)OCCO2	106.9
O=S(=O)(Nc1cccc(F)c1)c1ccccc1	93.0
O=C1/C(=C/c2cccs2)CCC/C1=C\c1cccs1	103.2
CNC(=O)c1cc2cc(OC)ccc2oc1=N	96.0
c1ccc2cc(OCCN3CCCCC3)ccc2c1	88.7
CCCCN1C(=O)SC(Nc2cccc(C)c2)C1=O (configuration not stated)	98.8
COc1ccc(-c2oc(/N=C/N3CCCCC3)c(C#N)c2-c2ccc(OC)cc2)cc1	98.4
COc1ccc(C2CC(c3c(O)cc(C)oc3=O)=NCCS2)c(OC)c1 (configuration not stated)	98.6
COC(=O)/C=C/C(=O)Nc1ccccc1	82.9
CCCN(CCO)CCCc1ccccc1	104.5
CCS(=O)(=O)c1cccc(C(=O)Nc2nccs2)c1	96.2
CCCC(=O)Nc1ccc(Cl)c(Cl)c1	107.0
C[C@H](CS)C(=O)N1CCC[C@H]1C(=O)O	97.9&100.0&93.5
O=C1c2ccccc2C(=O)N1c1ccccc1	97.7
CN(CCO)c1nc(-c2ccccc2)c2cc(Br)ccc2n1	91.4
O=C1NC(=O)/C(=C\c2ccccc2C(F)(F)F)S1	97.3
Cc1cccc(C(=O)NCc2nnc(SCC(=O)c3ccccc3)n2C)c1	92.2
O=C(O)C(Oc1ccc2c3c(c(=O)oc2c1)CCCC3)c1ccccc1 (configuration not stated)	102.2
CCOc1ccc2c(C)cc(=O)oc2c1	95.7
CN(C)[C@@H]1C(=O)C(C(N)=O)=C(O)[C@@]2(O)C(=O)C3=C(O)c4c(O)ccc(Cl)c4[C@@H](O)[C@H]3C[C@@H]12	98.4
O=C(CCC(=O)c1ccccc1)c1ccccc1	93.9
O=C1C(Nc2cccc(O)c2)=C(n2nnc3ccccc32)C(=O)c2ccccc21	98.9

New compounds follow:
Structure	RVFV N-RNA FP
COC(=O)c1ccc(COc2ccc3c(C)cc(=O)oc3c2)o1	78.5
COC(=O)c1c(NC(=O)C2CC(=O)NN2C)sc2c1CCC2 (configuration not stated)	92.7
CCN(CC)CCSc1nnc(Nc2ccccc2)n1-c1ccccc1	92.4
COc1ccc(-c2nc3scc(CCNC(=O)c4ccccc4)n3n2)cc1	88.4
CC(C)c1cc(NNC(N)=O)cc(C(C)C)c1O	94.8
O=C(c1cccs1)N1N=C(c2ccccc2)CC1c1cccs1 (configuration not stated)	88.7
CC(C)c1nc(NCc2ccccc2)c(C#N)c2c1CCCC2	83.3
CCOc1ccc(-c2ccc(=O)n(CC(N)=O)n2)cc1	104.2
ClC1=NN(c2ccccc2)CC1	95.1
CCOC(=O)COn1c(=O)c(-c2ccc(Cl)cc2)[n+]([O-])c2ccccc21	93.4
N#Cc1ccc(OCC(=O)c2ccccc2)cc1	101.7
NCCC(O)(P(=O)(O)O)P(=O)(O)O	98.4
O=C(Nc1ccccc1F)Nc1ccccc1N1CCCCC1	86.9
NCCn1ccc2ccccc21	95.8
Cn1cc(-c2nc3ccccc3s2)c(N)n1	94.1
Cc1[nH]c2ccccc2c1C1(O)C(=O)N(C(C)C)c2ccccc21 (configuration not stated)	90.1
O=C(c1ccc(F)cc1)N1CCC2(CC1)OCCO2	96.5
CSc1ccccc1C(=O)NC1CCCCC1	95.4
Cc1c(C(=O)N2CC(C)OC(C)C2)oc2ccccc12 (configuration not stated)	91.0
CC(NC(=O)C1C2C=CC(C2)C1C(=O)O)C12CC3CC(CC(C3)C1)C2 (configuration not stated)	98.2
O=C(Cc1ccccc1)NCc1ccc(F)cc1	97.4
O=C(Cn1c(S(=O)(=O)Cc2ccccc2)nc2ccccc21)NC1CC1	96.4
FC(F)(F)c1cc(C(F)(F)F)n2[nH]c(=S)nc2n1	86.3
Cc1cc(OCC(=O)N(C(C)C)C(C)C)cc(C)c1Br	105.4
C/C(=N\N=C(/N)SC1CC(=O)N(C)C1=O)c1ccc(F)cc1 (configuration not stated)	114.3
O=C(c1ccco1)N(Cc1ccccc1)Cc1ccccc1	103.5
CC(C)N(C(=O)Cn1cc(S(=O)(=O)CC(N)=O)c2ccccc21)C(C)C	93.0
O=C1CCCC/C1=C/Nc1ccc(Br)cc1F	86.7
Cc1ccc(C(=O)Nc2c(N)nc(SCC(=O)N3CCCc4ccccc43)[nH]c2=O)cc1	99.9
CCN1C(=O)/C(=C\c2ccc(-c3ccc(Br)cc3C(=O)O)o2)N(CC)C1=S	104.4
O=C(NCC1CCCO1)c1cc2ncc(Br)cn2n1 (configuration not stated)	93.7
CC1=Nn2c(nnc2-c2ccc(Cl)cc2)SC1	95.9
COc1ccc(-c2csc(-n3[nH]c(C)c(C(c4ccc(Cl)cc4)C(C#N)C(N)=O)c3=O)n2)cc1 (configuration not stated)	100.8
N#CCNC(=O)c1ccccc1Br	99.6
CN(C)/C=C(\C#N)c1cccc(C(F)(F)F)c1	110.0
O=C(O)c1ccc(Sc2ccccc2C(=O)O)c(C(=O)O)c1	99.7
C=CCn1c(N)c(S(=O)(=O)c2cccc(C)c2)c2nc3ccccc3nc21	93.6
O=S(=O)(NNc1c(Cl)cncc1Cl)c1ccc2c(c1)OCC2	97.1
COCc1ccccc1Cn1cnc2ccccc21	100.3
